# eIF4H FP inh – inhibitors of RNA binding by human eIF4H | Q15056 | eIF4H fluorescence polarization binding assay | inhibition, % at 35 µM | hit rate 0.94% among 290,000 | AID 2012;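 active means 50% or more with normal probe brightness, or confirmed in later tests; about a fifth of its hits are not listed in these tables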;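 further: calls also rest on retests at 20 µM and on dose response follow-up; 0% = protein and probe with vehicle and 100% = probe without protein; strong numbers were not always called active; many hits fall short of the cut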
# Rce1 inh – inhibitors of yeast Ras-converting enzyme; AID 2563; hit rate 0.27% among 290,000; yeast membranes, quenched prenylated peptide cleavage fluorescence; calls only;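 active means fall in fluorescence gain of 50% or more versus controls, with final raw signal at or below 3038400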;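 further: plate controls were neutral control wells for no effect and wells lacking membranes for full effect; tested at 10 µM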
# PABP FP inh – blocks human PABP binding to poly(A) RNA | P11940 | fluorescence polarization | inhibition, % at 35 µM | hit rate 1% among 290,000 | AID 2014;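 active means 50% or more with normal probe brightness, or confirmed in later tests; about a fifth of its hits are not listed in these tables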;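 further: calls also rest on retests at 20 µM and on dose response follow-up; controls were probe without protein and protein plus probe with vehicle; some compounds called inactive have numbers as strong as hits; many hits fall short of the cut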
# Target sequence (P11940 whole entry, looked up): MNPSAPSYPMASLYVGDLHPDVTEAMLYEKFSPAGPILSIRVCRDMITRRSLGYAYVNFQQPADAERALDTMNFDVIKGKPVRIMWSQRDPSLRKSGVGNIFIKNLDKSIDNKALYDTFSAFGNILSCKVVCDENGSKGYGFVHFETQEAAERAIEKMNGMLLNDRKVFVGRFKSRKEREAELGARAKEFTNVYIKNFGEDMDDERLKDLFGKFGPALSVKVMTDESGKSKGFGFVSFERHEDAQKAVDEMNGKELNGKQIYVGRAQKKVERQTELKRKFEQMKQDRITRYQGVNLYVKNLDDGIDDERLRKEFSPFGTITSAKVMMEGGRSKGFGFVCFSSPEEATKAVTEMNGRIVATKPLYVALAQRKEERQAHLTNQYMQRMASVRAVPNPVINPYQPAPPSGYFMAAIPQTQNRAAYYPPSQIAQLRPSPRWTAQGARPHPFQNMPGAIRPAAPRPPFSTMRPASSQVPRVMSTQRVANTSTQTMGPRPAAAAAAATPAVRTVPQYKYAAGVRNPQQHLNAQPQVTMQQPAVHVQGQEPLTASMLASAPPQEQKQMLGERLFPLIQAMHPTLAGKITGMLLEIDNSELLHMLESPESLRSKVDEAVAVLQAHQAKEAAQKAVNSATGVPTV
# Yeast UUG start – yeast start codon fidelity modulation; S. cerevisiae UUG-firefly luciferase reporter, luminescence/redox ratio; activity score, % at 18.7 µM; hit rate 0.13% among 350,000; AID 602363;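 active means replicate mean at a twofold rise or more, about +100% in these data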;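 further: firefly luciferase made from a UUG start codon reports start codon fidelity; reporter light over untreated wells divided by growth signal over untreated wells; some hits fall short of that in this replicate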
# CSC inhib – blocks cancer stem cells. cancer stem cell-like cells viability, luminescence. inhibition, % at 7.5 µM. hit rate 1.1% among 300,000;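 active means mean at 75% or more and at least half the replicates too; tested in HMLE shEcad cells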;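 further: 0% = median of negative and 100% = median of positive control wells; the first replicate is given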
# MT1-MMP act inh – blocks activation of human MT1-MMP; GFP/RFP ratio change, % at 20 µM; HT1080 RFP-PRO-GFP cells, GFP/RFP ratio fluorescence, overnight; percent of plate control window, DMSO zero; hit rate 0.061% among 360,000; P50281;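 active means GFP/RFP ratio change of at least 30% with cell ATP level not reduced by more than half and red fluorescence within 50% of control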; further: strong numbers were not always called active
#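 Assay system: RFP-PRO-GFP reporter HT1080 cells; read-out basis: GFP/RFP fluorescence ratio; benchmarks: DMSO wells and RFP-L50D-GFP cells; doses: 20 µM single dose, 1% DMSO; schedule: overnight cell settling, then overnight compound exposure, 37 °C, 5% CO2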
# Env fusion inh – blocks HIV Env-driven cell-cell fusion; HeLa-JRFL Env/CEM21 cell fusion, luciferase; inhibition, % at 12.3 µM; hit rate 1.1% among 360,000; AID 651610;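 active means mean replicate inhibition score of at least 50 and every replicate individually at or above 50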;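 further: 0% = plate neutral controls and 100% = maraviroc near 300 nM; one replicate is shown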
# eIF4H FP inh retest – also measured in eIF4H FP inh; calls as there; inhibition, %; compound at 20 µM; confirmation average;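 mean of two retest wells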
# PABP FP inh retest – further read-out of PABP FP inh, marked with its call; inhibition, %; compound at 20 µM; confirmation repeats;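 mean of two retest wells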
# MT1-MMP act inh RFP – also measured in MT1-MMP act inh; calls as there; RFP signal change, %; measured here: RFP expression control read;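 0 = vehicle wells; hits needed this value within 50% of zero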
# * marks the source's active call; other numbers are inactive results; i = inactive; / = not tested or not shown; & = joins results of further samples; [ ] = remark or other dose. A portion of the library, so the mix of outcomes need not match the whole.
SMILES,eIF4H FP inh,Rce1 inh,PABP FP inh,Yeast UUG start,CSC inhib,MT1-MMP act inh,MT1-MMP act inh RFP,Env fusion inh,others
O=C(Nc1ccc(N2CCN(C(=O)c3ccccc3)CC2)cc1)c1cc2ccccc2o1,-3,/,1,-7,/,-8,-28,/,
O=C(CSc1nc(-c2ccc(F)cc2)cs1)N1CCOCC1,-4,i,-8,-10,-2,2,-3,/,
O=C(NCc1ccc2c(c1)OCO2)c1nn(-c2ccccc2)c(=O)c2ccccc12,1,i,-3,-16,-1,-2,-5,-32,
O=C(Nc1ccccc1)C1CC(=O)N(C2CCCCC2)C1 (centres undefined),-5,i,-7,-7,-15,0,6,/,
Cc1cc(C(C)(C)C)oc1C(=O)N(CC(=O)NC1CCCC1)Cc1ccc(Cl)cc1,13,i,0,-4,5,-32,-22,74*,
CC(C)(C)NC(=O)NC(=O)CN1c2cccc3cccc(c23)S1(=O)=O,-4,i,7,7,/,12,-2,-5,
O=C(c1ccc(CNS(=O)(=O)c2cccc(C(F)(F)F)c2)cc1)N1CCOCC1,-3,/,5,58,-10,1,0,-5,
OCCN(Cc1ccccc1)Cc1ccccc1Cl,-4,i,13,1,/,2,4,21,
COc1ccc(C(=O)N/C(=C\c2ccc([N+](=O)[O-])cc2)C(=O)NC(CCSC)C(=O)O)cc1 (centres undefined),16,i,-9,/,4,4,0,13,
O=C(NNS(=O)(=O)c1ccc(F)cc1)c1ccc(O)cc1,2,i,-4,6,-5,-3,-1,-2,
O=C(CCC1CCCN(C(=O)c2ccc3[nH]ccc3c2)C1)N1CCN(c2ccccn2)CC1 (centres undefined),-5,i,-3,2,13,8,-7,5,
CC(=O)Nc1cncc(-c2cccc(C(=O)NCCN(C)C)c2)n1,/,/,/,-18,/,7,7,-16,
CCCOc1ccc(F)cc1-c1cc(C(=O)NCc2ccc(F)cc2)[nH]n1,/,/,/,-5,/,-1,-7,-16,
C[C@@H]1CCCCO[C@H](CN(C)Cc2ccc3c(c2)OCO3)[C@@H](C)CN([C@H](C)CO)C(=O)c2cc(NC(=O)c3ccccc3)ccc2O1,/,/,/,-17&7,/,-1,0,0[16.7 µM],
N#Cc1c(Nc2ccc(F)cc2)sc(C(=O)c2ccc(F)cc2)c1N,10,i,4,-6,-33,7,-5,/,
COc1ccc(NC(=O)C2CCN(C(=O)c3ccccc3)CC2)cc1OC,11,i,-7,-42,-37,-4,0,/,
CCNc1nc(N)nc(Oc2ccc(OCC)nn2)n1,1,i,2,-13,-18,3,6,/,
CC(C)(C)c1ccc(OCC(O)CN2CCCC2)cc1 (centres undefined),-11,i,-6,-2,19,3,3,3,
Cc1nc2ncnn2c(C)c1CCC(=O)NCCc1ccccc1,7,/,4,-14,-1,-2,0,-78,
CCCOC(=O)C1=C(C)NC2=C(C(=O)CCC2)C1c1cccs1 (centres undefined),-13,i,-4,-22,0,10,1,21,
CC(C)(C)c1ccc(-c2nnc(SCC(=O)NC3CCS(=O)(=O)C3)n2N)cc1 (centres undefined),-10,i,16,/,-14,-6,0,0,
Cc1cc2cc(CNC(=O)c3cccc([N+](=O)[O-])c3)ccc2n1C,46,i,4,-21,-9,-1,2,-23,
O=C(CCS(=O)(=O)c1cc(Br)cc2c1N(C(=O)C1CC1)CC2)NCC1CCCO1 (centres undefined),-4,i,27,2,-17,1,7,/,
CCC(C)N(C(=O)c1csnn1)C(C(=O)NC1CCCC1)c1c(F)cccc1Cl (centres undefined),-13,i,2,-15,/,-2,-2,10,
Cc1ccc(S(=O)(=O)N2CCC[C@H]2C(=O)Nc2ccc(F)cc2C)cc1,/,/,/,2,-5,1,-3,-14,
COC(=O)c1ccc(CN2C(=O)NC(c3ccccc3)(c3ccccc3)C2=O)o1,1,i,5,2,-2,5,1,8,
CCC(=O)NC(=S)NNC(=O)c1ccc(NC(=O)c2ccccc2)cc1,-1,i,-12,-32,9,4,6,29,
CC1(C)C[C@H]2C3=CCC4[C@@]5(C)CC[C@H](O)C(C)(C)C5CC[C@@]4(C)[C@]3(C)[C@@H](O)[C@@H](O)[C@@]2(CO)[C@@H](O)[C@@H]1O (some centres undefined),/,/,/,-3,-22,-2,-6,-30,
CCCc1nc2nc(C)c(NS(=O)(=O)c3ccc(C4CCCCC4)cc3)c(=O)n2[nH]1,0,/,-1,10,-10,0,-1,3,
N=C1C(c2nc(-c3ccc(Br)cc3)cs2)=C(O)CN1NC(=O)c1ccc([N+](=O)[O-])cc1,28,i,3,/,-5,5,5,9,
COCCCNC(=O)CC1C[C@H](C(=O)N2CCOCC2)[C@@]2(CCC3CCCC3)c3[nH]c4ccc(OC)cc4c3CCN2C1=O (some centres undefined),/,/,/,-3,/,0,3,5,
CCc1cc(-c2n[nH]c(=S)n2C(C)c2ccccc2)cs1 (centres undefined),-7,i,2,/,-5,5,-3,-83,
COC(=O)c1ccc(CN2CCN(CC=C(C)C)C(CCO)C2)cc1 (centres undefined),4,i,4,/,6,1,-1,4,
CC1(C)C([N+](=O)[O-])C(c2ccc(Cl)cc2)NC(c2ccc(Cl)cc2)C1[N+](=O)[O-] (centres undefined),0,i,-2,-31,51,7,2,8,
Cc1cc(C)c(S(=O)(=O)N2CCOC2CNC(=O)C(=O)NCCc2c[nH]c3ccccc23)c(C)c1 (centres undefined),0,i,14,16,16,-1,-9,-17,
OC1C2CN3CCN(C2)CC1(Cc1ccccc1)C3 (centres undefined),-10,i,2,-2,-2,2,4,/,

# Entries shown so far containing an aryl thioether with sulfur outside any ring (2):
SMILES,eIF4H FP inh,Rce1 inh,PABP FP inh,Yeast UUG start,CSC inhib,MT1-MMP act inh,MT1-MMP act inh RFP,Env fusion inh,others
O=C(CSc1nc(-c2ccc(F)cc2)cs1)N1CCOCC1,-4,i,-8,-10,-2,2,-3,/,
CC(C)(C)c1ccc(-c2nnc(SCC(=O)NC3CCS(=O)(=O)C3)n2N)cc1 (centres undefined),-10,i,16,/,-14,-6,0,0,

# Compounds from the list above that contain a Cl atom (four):
SMILES,eIF4H FP inh,Rce1 inh,PABP FP inh,Yeast UUG start,CSC inhib,MT1-MMP act inh,MT1-MMP act inh RFP,Env fusion inh,others
Cc1cc(C(C)(C)C)oc1C(=O)N(CC(=O)NC1CCCC1)Cc1ccc(Cl)cc1,13,i,0,-4,5,-32,-22,74*,
OCCN(Cc1ccccc1)Cc1ccccc1Cl,-4,i,13,1,/,2,4,21,
CCC(C)N(C(=O)c1csnn1)C(C(=O)NC1CCCC1)c1c(F)cccc1Cl (centres undefined),-13,i,2,-15,/,-2,-2,10,
CC1(C)C([N+](=O)[O-])C(c2ccc(Cl)cc2)NC(c2ccc(Cl)cc2)C1[N+](=O)[O-] (centres undefined),0,i,-2,-31,51,7,2,8,

# The listing picks up; the 3 compounds before the break are reprinted first.
SMILES,eIF4H FP inh,Rce1 inh,PABP FP inh,Yeast UUG start,CSC inhib,MT1-MMP act inh,MT1-MMP act inh RFP,Env fusion inh,others
CC1(C)C([N+](=O)[O-])C(c2ccc(Cl)cc2)NC(c2ccc(Cl)cc2)C1[N+](=O)[O-] (centres undefined),0,i,-2,-31,51,7,2,8,
Cc1cc(C)c(S(=O)(=O)N2CCOC2CNC(=O)C(=O)NCCc2c[nH]c3ccccc23)c(C)c1 (centres undefined),0,i,14,16,16,-1,-9,-17,
OC1C2CN3CCN(C2)CC1(Cc1ccccc1)C3 (centres undefined),-10,i,2,-2,-2,2,4,/,
CN1CCN(c2cc(C(F)(F)F)nc(-c3ccccn3)n2)CC1,2,i,0,-28,-4,4,-8,-9,
COC(=O)c1cc2c(s1)-c1ccccc1CC2,-1,i,2,-11,-12,-5,2,/,
O=C(c1cccc(F)c1)N1CCN(C(=O)C(c2ccccc2)c2ccccc2)CC1,-2,i,51,11,-9,-1,-2,8,eIF4H FP inh retest=3;PABP FP inh retest=10
Cc1ccc(/C=N/NC(=O)COc2ccc(Cl)c(C)c2)o1,2,i,10,-11,6,1,2,5,
CC1CCC(NC(=O)C2c3ccccc3C(=O)N2Cc2cccs2)CC1 (centres undefined),0,i,-1,-12,3,0,-1,/,
CCOC(=O)c1c(C)n(C)c2ccc(OCCN(C)C)cc12,7,i,4,-3,-13,6,8,/,
CC(C)NC(=O)COc1coc(CN2CCN(C(=O)c3ccco3)CC2)cc1=O,/,i,/,-23,1,3,5,0,
Cc1cccc(-c2cccc(NC(=O)C3CCCN(C(=O)c4cccnc4)C3)c2)c1 (centres undefined),-11,i,-11,-9,13,-2,-3,-3,
O=C(Nc1ccc(Cl)cc1)NC1CCCCC1,1,i,6,0,9,3,-2,-51,
CCN(CC)CCNC(=O)c1ccc(NC(=O)c2ccc(S(=O)(=O)N3CCCC3)cc2)cc1,/,/,/,9,/,4,5,8,
Fc1ccccc1-c1nc(NCc2ccco2)c2ccccc2n1,13,/,9,/,-9,0,-3,9,
O=C(Nc1cccc(-c2cn3cccnc3n2)c1)c1ccc(Br)o1,-6,i,5,-13,/,5,3,-53,
NC(Cc1cnc[nH]1)c1csc(Nc2ccc(C(F)(F)F)cn2)n1 (centres undefined),/,/,/,-42,/,-1,2,-13,
O=C(NCc1ccco1)C1c2ccccc2Oc2ccccc21,/,i,/,/,-5,-1,-2,/,
O=C(NCc1ccc2c(c1)OCO2)c1cccnc1Cl,66,i,-2,/,-5,-6,-1,12,eIF4H FP inh retest=-6;PABP FP inh retest=11
CN1CCN(Cc2cccc(Oc3ccccc3)c2)CC1,2,i,10,-9,25,0,3,/,
COc1ccc(C)cc1NC(=O)CCN1CC(C)OC(C)C1 (centres undefined),6,i,14,/,-4,0,1,23,
COc1cccc(-c2nn(-c3ccc(C)cc3)cc2C(=O)NCC(c2cccs2)N2CCOCC2)c1 (centres undefined),/,i,/,-5,20,-7,-6,7,
CN(C)c1ccc(/C=N/N=C2/NC(=O)/C(=C/c3ccc([N+](=O)[O-])cc3)S2)cc1,-7,/,-5,-15,35,-28,-4,i,
CCCn1c(C)cc(C(=O)CSc2nc3ccccc3c(=O)n2Cc2ccco2)c1C,25,i,41,-21,3,-7,-16,8,
O=C(Nc1ccc(Cl)cc1F)C1CC1c1ccccc1 (centres undefined),-2,i,3,-12,/,0,2,-12,
COc1cc(/C=C/C(=O)OCC(=O)NCCCc2ccccc2)ccc1O,/,/,/,-5,15,2,2,/,
O=C(NCCCN1CCOCC1)c1ccc2c(=O)n(Cc3cccc(Br)c3)c(=S)[nH]c2c1,-11,i,-12,-19,14,7,-1,/,
COc1ccc2[nH]cc(C(=O)CN3CCN(C(=O)c4ccco4)CC3)c2c1,0,i,2,-3,10,5,6,/,
CCOc1ccc(NC(=S)N2CCC(NC(=O)c3ccccc3)CC2)cc1,-9,/,-3,-24,-7,3,2,2,
CCN(CC)C(=O)C1=C(C)N(Cc2ccccc2)C(=O)C(CC(=O)NC2CCCCC2)C1 (centres undefined),/,/,/,-18,/,3,3,-3,
CCS(=O)(=O)c1nc2ccccc2n1CC(=O)N1CCCCC1,-5,i,-9,-17,-14,0,2,/,
COc1ccc(NC(=O)CCNS(=O)(=O)c2ccc(Cl)c([N+](=O)[O-])c2)cc1S(N)(=O)=O,-4,i,16,-10,-7,2,3,6,
